# From PubChem
# Marburg entry inh: blocks Marburg virus binding to or entry into cells; 300,000 tested, 1.8% active; Marburg virus pseudotyped entry inhibition, cell reporter; control for the full effect not named in the record; about a third of the inactives were read at about 46 µM; Potency, µM (doses to about 37.8 µM), for the others: at the top dose activity change, negative = inhibition, usual class: inhibitors; AID 540276; active = well fitted inhibition curve with a large enough effect; inconclusive = small, poorly fitted or top-dose-only effect, or effect the other way; inactive = flat fitted curve, though single readings scatter; tested in HEK293 cells; about a fifth of its hits are not listed in these tables; further: on the % scale 0 is the no-effect control and ±100 the full control effect; luciferase read-out
# SARS PLP yeast: inhibitors of SARS-CoV papain-like protease in yeast | S. cerevisiae expressing SARS-CoV PLpro, growth rescue; control for the full effect not named in the record | Potency, µM (top dose mostly 32.9 µM), for the others: at the top dose activity, positive = growth rescue | 330,000 tested, 0.19% active | AID 485353; active means well fitted rising curve with a large enough effect; inconclusive means small, poorly fitted or top-dose-only effect; inactive means no such curve, though single readings can be large or run the other way; further: 0% is about no effect; nearly all actives have a fitted effect of over 55% in size; growth read by luminescence after 48 h
# RE007 growth inh: less growth of the S. pombe RE007 Vpr strain; S. pombe RE007 Vpr strain, BacTiter-Glo ATP luminescence, 24 h; control for the full effect not named in the record; Potency, µM (doses to about 92.2 µM), inactives show top-dose activity change, negative = less growth; 360,000 tested, 0.21% active; active = well fitted falling curve with a large enough effect; inconclusive = small, poorly fitted or top-dose-only effect; inactive = no such curve, though single readings can be large or run the other way;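 further: on the % scale 0 is the no-effect control and ±100 the full control effect; nearly all actives have a fitted effect of over 50% in size; the assay follows cell death caused by Vpr and the record does not say whether a fall means rescue or toxicity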
#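 Fission yeast RE007 carrying one integrated HIV-1 vpr copy, seeded at OD 0.01 in PMG+AL medium with 23 nL pinned compound. Grown 24 h at 30 degrees; viability read by BacTiter-Glo luminescence after 5 min.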
# 2A StopGo: FMDV 2A StopGo reporter, luciferase signal. human cells with a luciferase reporter of 2A StopGo recoding; control for the full effect not named in the record. Potency, µM (series often up to 57.9 µM), inactives show at the highest dose signal change, negative = less light. 410,000 tested, 1.2% active; active = well fitted falling curve with a large enough effect; inconclusive = small, poorly fitted or top-dose-only effect; inactive = no such curve, though single readings can be large or run the other way; tested in HEK293T cells; further: on the % scale 0 is the no-effect control and ±100 the full control effect; nearly all actives have a fitted effect of over 45% in size; luciferase light after 4 h
# Cruzain inh noDet: inhibitors of Trypanosoma cruzi cruzain without detergent | AID 1476 | 200,000 tested, 2.3% active | Potency, µM, inactives show max response, negative = inhibition, most hits filed as inhibitors | purified cruzain, Z-FR-AMC fluorescence, no detergent;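 further: plate controls were enzyme without inhibitor for no effect and buffer without enzyme for full effect; nearly all actives have a fitted effect of over 40% in size; top concentration of the series not given in the record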
# Target sequence (P25779 123-467 limits assumed): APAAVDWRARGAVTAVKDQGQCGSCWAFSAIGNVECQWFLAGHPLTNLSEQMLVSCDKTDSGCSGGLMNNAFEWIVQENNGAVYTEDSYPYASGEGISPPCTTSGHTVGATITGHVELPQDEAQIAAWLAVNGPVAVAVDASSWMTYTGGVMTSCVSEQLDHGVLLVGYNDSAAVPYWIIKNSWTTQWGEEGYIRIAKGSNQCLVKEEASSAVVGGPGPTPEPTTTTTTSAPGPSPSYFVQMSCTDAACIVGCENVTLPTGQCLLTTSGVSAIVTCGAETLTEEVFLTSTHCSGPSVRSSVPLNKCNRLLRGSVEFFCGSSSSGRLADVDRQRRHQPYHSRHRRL
#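 Detergent-free condition (0.00005% Triton X-100) in acetate buffer pH 5.5 with DTT. 1.5 nM enzyme and compound were pre-mixed 15 min, then 2 uM Z-FR-AMC substrate added; reaction progress from fluorescence change between first and third reads (60 s).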
# Cruzain inh Det: inhibitors of Trypanosoma cruzi cruzain with detergent | purified cruzain, Z-FR-AMC fluorescence, 0.01% Triton | Potency, µM, inactives show max response, negative = inhibition, hits mostly inhibitors | 200,000 tested, 0.43% active | P25779 | AID 1478;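 further: plate controls were neutral wells for no effect and buffer without enzyme for full effect; nearly all actives have a fitted effect of over 40% in size; top concentration of the series not given in the record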
#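 Read-out: AMC fluorescence (360 nm excitation, 450 nm emission), four reads over 2 min, first-to-third difference used. Conditions: cruzain 1.5 nM, Z-FR-AMC 2 uM, pH 5.5 acetate, 5 mM DTT, 0.01% Triton X-100.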
# Lassa entry inh: blocks Lassa virus binding to or entry into cells; Lassa virus pseudotype entry inhibition, cell reporter; control for the full effect not named in the record; Potency, µM (top dose mostly 37.9 µM), for the others: at the highest dose activity change, negative = inhibition, hits mostly inhibitors; 300,000 tested, 1.2% active; active means well fitted inhibition curve with a large enough effect; inconclusive means small, poorly fitted or top-dose-only effect, or effect the other way; inactive means flat fitted curve, though single readings scatter; tested in HEK293 cells; further: on the % scale 0 is the no-effect control and ±100 the full control effect; nearly all actives have a fitted effect of over 50% in size; luciferase read-out
# NS1 function inh: inhibitors of influenza NS1 protein function; 270,000 tested, 0.4% active; AID 2326; S. cerevisiae slowed by influenza A NS1, growth recovery by OD600; Potency, µM (highest dose often 46.1 µM), without a hit: at the highest dose activity, positive = more growth; active means well fitted rising curve with a large enough effect; inconclusive means small, poorly fitted or top-dose-only effect; inactive means no such curve, though single readings can be large or run the other way; further: nearly all actives have a fitted effect of over 50% in size
#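 Growth recovery, yeast-based: influenza A NS1 expressed in S. cerevisiae causes slow growth, and suppressors are detected by OD600. The parent strain without NS1 is used as positive control.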
# * hit, by the source's call; ? = inconclusive; nt = not tested or not shown; [ ] = another dose, or the depositor's remark. Unless noted, the call rests on the fitted dose curve; in most records, active means well fitted curve in the direction sought with a large enough effect; inconclusive means small, poorly fitted or top-dose-only effect, or another doubt; inactive means no such curve, though single readings can be large; an effect the other way counts as inactive or inconclusive. Potency means the concentration at half of the fitted maximal effect.
no.	Compound	Marburg entry inh	SARS PLP yeast	RE007 growth inh	2A StopGo
1	Cc1cc(C=C2C(=O)N(C)C(=S)N(C)C2=O)c(C)n1-c1cccnc1	-19%	-11%	nt	?
2	N#C/C(=C\c1ccc(Cl)cc1)c1nc(-c2cc3c(ccc4ccccc43)oc2=O)cs1	nt	nt	nt	-6%
3	O=C(NCc1ccc2c(c1)OCO2)c1ccc(CS(=O)(=O)Cc2cccc(Cl)c2)o1	-1%	-6%	6%	?
4	O=C(O)c1cccc2c1-c1ccc(Cl)cc1C2	19%	nt	-6%	-8%
5	CCOc1ccc(/C=N/NC(=O)Cn2ccnc2C)cc1	0%[46.1 µM]	0%	-6%	-3%
6	O=C(COC(=O)CSc1ccc([N+](=O)[O-])cc1)NCC1CCCO1 (centres undefined)	nt	-9%	-3%	-22%
7	Cc1ccc(Oc2ccc(Cl)cc2N)cc1	-24%[46.1 µM]	-4%	2%	24%
8	COC(=O)NNC(=O)COc1cc(C)c(Br)cc1C(C)C	3%	6%	-7%	-27%
9	CN1C2CCC1/C(=C\c1ccc(F)cc1)C(=O)/C2=C/c1ccc(F)cc1	?	-15%	-5%	-5%
10	Cc1ccc2c(c1)N(CC(=O)N1CCOCC1)C(=O)C(C)O2 (centres undefined)	12%[46.1 µM]	-13%	-3%	10%
11	O=C(NCc1cccnc1)c1c(O)c2cccc3c2n(c1=O)CCC3	?	0%	2%	?
12	CCOc1cccc(NC(=O)C2CCCN(S(=O)(=O)c3ccc(-n4cnnn4)cc3)C2)c1 (centres undefined)	?	10%	29%	-4%
13	OC1(CN2CCOCC2)C2CN3CCN(C2)CC1(c1ccccc1)C3 (centres undefined)	?	-10%	-5%	-21%
14	Cc1ccn2c(=O)nc(SCc3cccc(C(F)(F)F)c3)nc2c1	?	-8%	4%	-24%
15	NS(=O)(=O)c1ccc(CCNC(=O)c2ccccc2[N+](=O)[O-])cc1	?	1%	5%	-13%

no.	Cruzain inh noDet	Cruzain inh Det	Lassa entry inh	NS1 function inh
1	14%	-13%	0%	12%
2	-5%	1.2%	-20%[46.1 µM]	nt
3	6%	-1.6%	-13%	-5%
4	nt	nt	0%	nt
5	nt	nt	13%[46.1 µM]	1%
6	nt	nt	nt	-2%
7	nt	nt	8%	5%
8	2%	-4.3%	6%	-26%
9	17%	-4.3%	-27%	-9%
10	nt	nt	1%[46.1 µM]	3%
11	nt	nt	-5%	-42%
12	2%	-1.5%	-5%	5%
13	1%	1.5%	20%	11%
14	nt	nt	-17%[46.1 µM]	nt
15	0%	-4.6%	-7%	10%

# Next compounds.
no.	Compound	Marburg entry inh	SARS PLP yeast	RE007 growth inh	2A StopGo
16	O=C(COC(=O)c1ccc([N+](=O)[O-])cc1)Nc1ccccc1C(=O)NC1CC1	16%[46.1 µM]	-27%	6%	-3%
17	O=C(CSc1nnc(-c2ccncc2)n1Cc1ccco1)Nc1ccccc1F	?	-1%	-9%	-8%
18	CCc1nnc(NC(=O)Cc2cccs2)s1	-7%[46.1 µM]	10%	3%	9%
19	Cc1occc1-c1nnc(SCC(=O)NCc2cccs2)n1CC1CCCO1 (centres undefined)	8%	5%	19%	1%
20	O=C(Oc1ccc2c(c1)OCC2=O)c1ccccc1	3%	-4%	1%	nt
21	CCOc1ccccc1/C=C/c1onc(C)c1S(=O)(=O)N1CCC(C(=O)NC)CC1	nt	-5%	11%	-16%
22	O=[N+]([O-])c1cc(Cl)ccc1Sc1ccccn1	-28%[46.1 µM]	0%	10%	-23%
23	CCOc1ccc(Br)cc1S(=O)(=O)Nc1ccc(C(=O)Nc2ccc(C)cc2)cc1	?	-3%	5%	60%[activator]
24	O=C(CSc1nc2ccccc2[nH]1)NCc1ccc2c(c1)OCO2	7%	-4%	-10%	2%
25	COc1ccc(S(=O)(=O)N(C)c2ccc(OC(=O)C(C)Oc3ccc(F)cc3)cc2)cc1 (centres undefined)	0%	-6%	-7%	-3%
26	COCCN(Cc1nc(-c2ccc(-c3ccccc3)cc2)oc1C)C(C)C	nt	10%	-18%	-41%
27	CCOC(=O)/C=c1\s/c(=C(\C#N)C(N)=O)n(-c2ccccc2)c1=O	0%[46.1 µM]	-4%	25%	?
28	O=C(Cn1cnc2c(cnn2-c2ccccc2)c1=O)NCc1ccccc1	?	3%	13%	19%
29	CCOC(=O)c1[nH]c2cc3c(cc2c1NC(=O)CN1CCCC1)OCO3	12%	-1%	8%	-20%
30	S=C1Cc2ccccc2C(c2ccc(Cl)cc2)N1 (centres undefined)	?	0%	11%	-16%

no.	Cruzain inh noDet	Cruzain inh Det	Lassa entry inh	NS1 function inh
16	nt	nt	6%[46.1 µM]	nt
17	nt	nt	26%[46.1 µM]	1%
18	nt	nt	-1%	5%
19	1%	3.6%	?	4%
20	-12%	3.2%	24%	-2%
21	nt	nt	nt	9%
22	nt	nt	2%[46.1 µM]	2%
23	32µM*	-3.9%	0%	17%
24	8%	-8.5%	21%	4%
25	nt	nt	-15%	nt
26	nt	nt	nt	-25%
27	nt	nt	-5%	2%
28	?	4.2%	-4%	-3%
29	nt	nt	6%	1%
30	nt	nt	?	?

# Compound profiles (already shown):
# CCOc1ccc(/C=N/NC(=O)Cn2ccnc2C)cc1 across the screens: Marburg entry inh = 0%[46.1 µM]; SARS PLP yeast = 0%; RE007 growth inh = -6%; 2A StopGo = -3%; Cruzain inh noDet = nt; Cruzain inh Det = nt; Lassa entry inh = 13%[46.1 µM]; NS1 function inh = 1%
# O=C(CSc1nnc(-c2ccncc2)n1Cc1ccco1)Nc1ccccc1F across the screens: Marburg entry inh = ?; SARS PLP yeast = -1%; RE007 growth inh = -9%; 2A StopGo = -8%; Cruzain inh noDet = nt; Cruzain inh Det = nt; Lassa entry inh = 26%[46.1 µM]; NS1 function inh = 1%

# Going on with the list:
no.	Compound	Marburg entry inh	SARS PLP yeast	RE007 growth inh	2A StopGo
31	Cc1c(Cl)ccc2c1NC(=O)[C@]21N[C@@H](Cc2ccccc2)[C@H]2C(=O)N(c3ccc(F)cc3)C(=O)[C@H]21	?	-7%	4%	?
32	COc1cccc(C(=O)N2CCN(S(=O)(=O)Cc3ccccc3)CC2)c1	2%	?	-9%	nt
33	O=C(COC(=O)CCc1c[nH]c2ccccc12)NCc1ccc2c(c1)OCO2	-19%[46.1 µM]	-1%	9%	-8%
34	CC(NC(=O)c1ccccc1Cl)C(=O)Nc1ccc2c(c1)OCO2 (centres undefined)	13%	-2%	-17%	22%
35	CCC(C)NC(=O)c1c(N)n(/N=C/c2ccccn2)c2nc3ccccc3nc12 (centres undefined)	?	8%	3%	-19%
36	CC1(C)C(=O)NCCN1C(=O)CC1C(=O)NCCN1Cc1cccc(C(F)(F)F)c1 (centres undefined)	nt	6%	-9%	-9%
37	CN(C)c1nc(Oc2ccc(=O)[nH]n2)nc(N2CCOCC2)n1	?	3%	-3%	-4%
38	Cc1ccccc1N(CC(=O)NCc1ccco1)C(=O)CNS(=O)(=O)c1ccc(F)cc1	-21%[46.1 µM]	2%	9%	25%
39	COc1cc(C=O)ccc1OCCCCOc1ccccc1[N+](=O)[O-]	-13%	0%	-7%	9%
40	C[C@H](NC(=O)OC(C)(C)C)C(=O)NCC1CCC(C(=O)O)CC1 (some centres undefined)	4%	-4%	-1%	7%
41	O=c1[nH]c2ccc(NCc3ccc(-c4ccc(Br)cc4)o3)cc2[nH]1	7%[46.1 µM]	nt	nt	-21%
42	CCCn1nc(C(=O)Nc2ccc(-n3cnnn3)cc2)c2ccccc2c1=O	-11%[46.1 µM]	0%	4%	?
43	CCOc1ccc(NC(=O)CCn2c(=S)oc3ccccc32)cc1	0%	0%	3%	-5%
44	CN1CCc2c(sc(NC(=O)CSc3ccccc3)c2-c2nc3ccccc3s2)C1	nt	nt	nt	-14%
45	COc1ccccc1C(CNC(=O)c1cccc(NS(=O)(=O)c2ccc(C)c(F)c2)c1)N(C)C (centres undefined)	?	-1%	-23%	5%

no.	Cruzain inh noDet	Cruzain inh Det	Lassa entry inh	NS1 function inh
31	4%	-4.7%	?	15%
32	2%	-0.4%	9%	2%
33	nt	nt	-1%	-6%
34	nt	nt	14%	nt
35	?	-8.6%	8%	11µM*
36	nt	nt	nt	16%
37	-4%	7.3%	-6%	11%
38	nt	nt	nt	2%
39	-8%	-5.4%	4%	-21%
40	-8%	2.7%	1%	-2%
41	?	-2.4%	-3%[46.1 µM]	nt
42	nt	nt	0%	nt
43	nt	nt	7%	5%
44	-5%	-0.9%	9%[46.1 µM]	nt
45	nt	nt	-28%	nt

# (further entries)
no.	Compound	Marburg entry inh	SARS PLP yeast	RE007 growth inh	2A StopGo
46	CCC(=Nc1ccc2c(c1)CCC2)c1c(O)n(C2CCCCC2)c(=O)[nH]c1=O	0%	2%	13%	-5%
47	CCOc1ccc(CNC(=O)CSc2nnc(C)c3c(C)n(-c4ccccc4)nc23)cc1	nt	nt	nt	?
48	COc1ccccc1OCCNS(=O)(=O)c1ccc2oc3ccccc3c2c1	-4%[46.1 µM]	-21%	12%	1%
49	COc1ccc(C/C(N)=N/OC(=O)COc2ccccc2C)cc1	4%	-14%	-27%	-19%
50	COc1cccc(-c2nc(CS(=O)CC(=O)NCc3ccc4c(c3)OCO4)c(C)o2)c1 (centres undefined)	nt	4%	6%	-6%
51	CCC(Oc1ccccc1)C(=O)Nc1ccc(S(=O)(=O)Nc2ncccn2)cc1 (centres undefined)	24%[46.1 µM]	-20%	13%	5%

no.	Cruzain inh noDet	Cruzain inh Det	Lassa entry inh	NS1 function inh
46	-20%	-4.2%	?	-7%
47	19%	-7.4%	-16%[46.1 µM]	nt
48	14%	-8.7%	3%	-2%
49	0%	-2.8%	?	-9%
50	16%	-1.9%	nt	2%
51	nt	nt	-2%	-5%

# Compounds were not picked by outcome; overall some 4.7% were active at least once.
